Screening results: PubChem, National Center for Advancing Translational Sciences (NCATS)
ClpP mod – qHTS Assay for Activators of ClpP | ATP-dependent Clp protease proteolytic subunit (Bacillus subtilis (strain 168)), P80244 | purified B. subtilis ClpP, FRET peptide cleavage, 20 min | Potency, µM (top dose mostly 57.5 µM), for inactives: at the highest dose activity change, negative = active | 340,000 compounds, 1.9% hits | AID 651965, 2013; active = well fitted falling curve with a large enough effect; inconclusive = small, poorly fitted or top-dose-only effect; inactive = no such curve, though single readings can be large or run the other way; also: potency is read from the fitted curve at half-maximal effect; the source files actives as falling curves though it sought activators and does not explain the sign; nearly all actives have a fitted effect of over 65% in size; many hits overshoot -100%
Target sequence (P80244 whole entry, looked up): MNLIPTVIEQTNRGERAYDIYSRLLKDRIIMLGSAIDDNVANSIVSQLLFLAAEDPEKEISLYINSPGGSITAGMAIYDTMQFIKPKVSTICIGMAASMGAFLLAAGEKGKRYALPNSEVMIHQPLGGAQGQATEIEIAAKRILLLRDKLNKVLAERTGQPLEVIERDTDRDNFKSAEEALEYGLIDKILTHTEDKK
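ClpP 10 microg/mL final, pH 8 Tris/KCl buffer with BSA, glycerol, Tween-20; compound pinned in; FRET-FV substrate; RT 20 min; Ex320/Em430; ΔFRET vs ADEP 5.8 microM, DMSO, no enzyme.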
TRPML1 blocker – blocks the human TRPML1 channel; Q9GZU1; TRPML1-inducible cells, Ca2+ dye fluorescence, FDSS; stronger effect = lower value; inhibition of EC80 agonist-evoked calcium signal; activity change, negative = inhibition, % (concentration not given with the values); 390,000 compounds, 0.02% hits; AID 624415; in the data active means activity change below about -50%; inconclusive means about -30% to -50%; inactive means above about -30%;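 also: stimulus is agonist 54-4 at its EC80 concentration; % is scaled to controls: 0 for no effect and ±100 for the full control effect; the text of the record puts the active cut at -80%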
Target sequence (Q9GZU1 whole entry, looked up): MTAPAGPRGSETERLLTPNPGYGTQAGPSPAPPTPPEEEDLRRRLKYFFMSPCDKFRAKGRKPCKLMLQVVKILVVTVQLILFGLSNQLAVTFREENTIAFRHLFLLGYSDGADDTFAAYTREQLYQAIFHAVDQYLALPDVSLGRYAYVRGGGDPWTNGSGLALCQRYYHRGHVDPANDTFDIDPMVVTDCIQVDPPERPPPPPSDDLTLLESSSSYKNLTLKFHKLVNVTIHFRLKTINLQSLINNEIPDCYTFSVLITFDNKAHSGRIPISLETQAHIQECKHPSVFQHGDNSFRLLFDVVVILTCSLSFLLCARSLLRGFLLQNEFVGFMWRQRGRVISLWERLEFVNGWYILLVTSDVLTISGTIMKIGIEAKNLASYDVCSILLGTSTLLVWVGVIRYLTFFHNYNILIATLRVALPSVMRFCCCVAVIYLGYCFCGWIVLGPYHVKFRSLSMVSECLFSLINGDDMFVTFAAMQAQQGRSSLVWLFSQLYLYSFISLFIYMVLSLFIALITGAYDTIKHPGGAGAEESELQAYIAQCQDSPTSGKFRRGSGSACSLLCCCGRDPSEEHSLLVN
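TRPML1-DL cells, Tet-induced overnight (~16 h, 37 °C) at 1,500 cells/well, were loaded with Ca8 no-wash dye plus quencher for 45-90 min at room temperature. Compounds were pinned during FDSS kinetic reading; agonist 54-4 at EC80 (4 uM final) then added.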
An asterisk follows results filed as active; u = inconclusive. The list is partial (hit frequency here may not be typical).

Order of values: ClpP mod	TRPML1 blocker
> Cc1ccccc1-c1noc(-c2ccc(NCc3ccco3)c([N+](=O)[O-])c2)n1
    2.6%	10
> Cc1ccc(S(=O)(=O)c2cn(CC(=O)Nc3ccccc3C)c3cc4c(cc3c2=O)OCO4)cc1
    -8.9%	-9
> COc1ccc(Nc2cc(C(=O)NCc3cccs3)c3ccccc3n2)cc1
    -17%	-18
> CCOc1ccc(C2c3c(oc4cc(C)c(C)cc4c3=O)C(=O)N2c2ccccn2)cc1 (stereo not drawn)
    -0.6%	7
> CCCc1nnc(NC(=O)Cc2coc3c(C)c(C)ccc23)s1
    0.0%	3
> Cn1c(=O)n(Cc2ccccc2Cl)c(=O)c2c1nc1n2CCN1c1ccccc1
    -8.6%	20
> COC(=O)N(C)C[C@H]1OCc2cn(nn2)CCCC(=O)N([C@@H](C)CO)C[C@@H]1C
    -0.2%	4
> O=C(NCCc1ccccc1)c1nnc(Cc2cccc(F)c2)o1
    -4.2%	-8
> Cc1ccc(Cn2c(=O)n(-c3ccc(C)cc3)c(=O)c3c2c2cc(C)ccc2n3C)cc1
    u	15
> COc1ccc(-n2c(=O)c3c(c4cc(OC)ccc4n3C)n(Cc3cccc(C)c3)c2=O)cc1
    u	-3
> COc1ccccc1Cn1c(CNS(=O)(=O)c2ccc3c(c2)CCCC3)nc2cccnc21
    -15%	-2
> Cc1ccc(-c2nc(SCC(=O)NCc3ccco3)c3c(=O)n(C)c(=O)n(C)c3n2)cc1
    -0.2%	-28
> CSc1ccc(/C=C/c2nc3ccccc3n2S(=O)(=O)c2ccc(F)c(C)c2)cc1
    4.3%	-5
> Cc1ccccc1OCC(=O)Nc1ccccc1C(=O)OCc1cc(=O)n2ccsc2n1
    -22%	62
> Cc1cn([C@H]2C[C@H](O)[C@@H](CCC(=O)NCC3CCCO3)O2)c(=O)[nH]c1=O (stereo partly drawn)
    1.0%	8
> COc1ccc(CCNC(=O)CCCn2c(=O)c3ccccc3n(CC(=O)Nc3cccc(C)c3)c2=O)cc1OC
    1.0%	-10
> CCOC(=O)c1cc(C)n(CC2CCC(C(=O)Nc3ccc(OC)c(OC)c3)CC2)c1C (stereo not drawn)
    0.0%	-4
> CCS(=O)(=O)c1nc(S(=O)(=O)c2ccc(C)cc2)c(NCc2ccc(Cl)cc2)s1
    -4.7%	3
> CC(=O)Nc1ccc(NC(=O)CCCc2nc(-c3ccc(C(C)(C)C)cc3)no2)cc1
    1.1%	-24
> CCOc1ccc(CNS(=O)(=O)c2ccc3[nH]c(=O)ccc3c2)cc1
    0.3%	-16

(listing goes on)
Order of values: ClpP mod	TRPML1 blocker
> Cc1oc2ncn(C)c(=O)c2c1C(=O)N1CCN(c2ccccc2)CC1
    1.5%	-10
> CC(C)(C)S(=O)N1Cc2cc(C(=O)N3CCOCC3)nc(-c3cccc(Br)c3)c2[C@@H]1CCO (stereo partly drawn)
    -2.3%	-2
> Cc1nn(CCCC(=O)Nc2cccc(F)c2)c(=O)c2c1sc1ccccc12
    0.1%	11
> COc1ccccc1N1CCN(C(=O)Cn2c(=O)n3nc(-c4cccc(C)c4)nc3c3ccccc32)CC1
    -0.9%	4
> Cc1ccc(Cl)cc1N1CCN(C(=O)C2CCC(CNS(=O)(=O)c3cccs3)CC2)CC1 (stereo not drawn)
    0.1%	43
> CCOc1ccc(-c2cc(NC(=O)Nc3ccccc3C(F)(F)F)c(C(=O)OC)s2)cc1
    65%	-19
> CN(C(=O)CSc1nc2ccccc2n1Cc1ccccc1C#N)c1ccccc1
    -1.9%	49
> CCOc1ccc(NC(=O)Cn2nc(-c3ccncc3)ccc2=O)cc1
    0.0%	5
> CCOC(=O)c1ccccc1NC(=O)c1sc2ncn(Cc3cccc(F)c3)c(=O)c2c1C
    -3.4%	-18
> Cn1ccc2c(-c3ccc(CO)cc3)cc3c(c21)C1CCC3C1 (stereo not drawn)
    5.2%	30
> CCOC(=O)c1ccccc1NC(=O)Cn1c(=O)n(Cc2nc(-c3ccccc3)no2)c(=O)c2ccccc21
    -1.6%	9
> COc1ccc(S(=O)(=O)N(CC(=O)NCCSc2ccccc2)c2ccc(C)cc2)cc1
    -1.3%	-11
> Nc1c(-c2nc(-c3cccs3)no2)nnn1-c1cccc(Cl)c1
    -1.2%	17
> CCOc1ccc(NC(=O)CN2CCN(C3CCCCC3)C(=O)C2=O)cc1
    0.3%	3
> CC1(C(=O)NS(=O)(=O)c2cccc(Cl)c2)CCN1C(=O)Cc1cccs1 (stereo not drawn)
    -3.3%	38
> COc1ccc(CNC(=O)c2cc3cccc(OC)c3oc2=O)cc1
    0.2%	-11
> CCOC(=O)C1CCCN(C(=O)c2ccc(OC)cc2)CC1 (stereo not drawn)
    -0.5%	-12
> OC(c1ccc(-c2ccccc2)cc1)c1ncc(-c2ccccc2)[nH]1 (stereo not drawn)
    -6.9%	3
> COC(=O)c1ccc(NC(=O)C(C)N2Cc3ccccc3C2=O)cc1 (stereo not drawn)
    -2.2%	-19
> CCOC(=O)c1c(C)oc2c1cc(NS(=O)(=O)c1ccc(C)cc1)c1ccccc12
    0.2%	-11

Structural class, the compounds so far containing a furan ring, fused or not (5)
Order of values: ClpP mod	TRPML1 blocker
> Cc1ccccc1-c1noc(-c2ccc(NCc3ccco3)c([N+](=O)[O-])c2)n1
    2.6%	10
> CCCc1nnc(NC(=O)Cc2coc3c(C)c(C)ccc23)s1
    0.0%	3
> Cc1ccc(-c2nc(SCC(=O)NCc3ccco3)c3c(=O)n(C)c(=O)n(C)c3n2)cc1
    -0.2%	-28
> Cc1oc2ncn(C)c(=O)c2c1C(=O)N1CCN(c2ccccc2)CC1
    1.5%	-10
> CCOC(=O)c1c(C)oc2c1cc(NS(=O)(=O)c1ccc(C)cc1)c1ccccc12
    0.2%	-11

Next records follow:
Order of values: ClpP mod	TRPML1 blocker
> COc1ccc(CCNC(=O)CCCCn2c(=O)c3ccccc3n(Cc3cccc(C)c3)c2=O)cc1OC
    -15%	-11
> Cc1cccc(NC(=O)C2CCN(c3nnc(C)c4c(C)n(-c5ccccc5)nc34)CC2)c1C
    -2.6%	-15
> Cc1ccc(-n2ncc(C(=O)N3CCN(c4ccccn4)CC3)c2C2CCN(C(=O)OC(C)(C)C)CC2)cc1
    -11%	19
> CCCn1c(=O)n(-c2cc(Cl)c(OC)cc2OC)c(=O)c2c3c(sc21)CN(C(C)=O)CC3
    -0.7%	20
> O=C(Nc1ccc(F)c(F)c1)c1cc(S(=O)(=O)NCc2ccc3c(c2)OCO3)ccc1F
    29%	-14
> Cc1c(C(=O)OC2CCCCCC2)[nH]c2c1C(=O)CC(c1ccccc1Cl)C2 (stereo not drawn)
    -4.2%	7
> Cc1ccc(Cl)cc1N1CCN(C(=O)CCc2nnc3n(C)c(=O)c4ccccc4n23)CC1
    u	-21
> COc1ccc(Cc2c(-c3ccco3)nc3c(C)cc(Br)cn23)c(C)c1
    -2.9%	-18
> CCc1ccc(N2CCn3c2nc2c3c(=O)n(Cc3c(F)cccc3Cl)c(=O)n2C)cc1
    -3.8%	-22
> O=C(CSc1nccn1Cc1ccc(F)cc1)NCc1ccco1
    -2.5%	21
> Fc1ccccc1N1CCN(c2c3c(nc4nncn24)CCC3)CC1
    -1.9%	-5
> CC(=O)Nc1ccccc1OCc1cc(=O)n2c3c(sc2n1)CCCC3
    0.3%	-4
> Cc1cc(Nc2ccccc2C)n2nc(Cc3ccc(Cl)cc3)nc2n1
    1.0%	12
> CN1CCN(C(=O)C(=O)Nc2c3c(nn2-c2ccc(Cl)cc2)CSC3)CC1
    -2.2%	13
> CCN1CCN(c2ncc3c(n2)CCN(Cc2ccc(OC)c(OC)c2)C3)CC1
    0.6%	-1
> COCCCNC(=O)CSc1nc2cc(OC)c(OC)cc2c2nc(-c3ccccc3)nn12
    -4.7%	9
> Nc1nonc1-c1nc2ccccc2n1CC(=O)Nc1cccc(C(F)(F)F)c1
    -9.8%	33
> Cc1ccc(C)c(NC(=O)N2CCC(CN3CCOCC3)CC2)c1
    -1.4%	17
> Cc1cccc(C)c1NC(=O)c1sc(-n2nc(C)c(Cc3ccc4c(c3)OCO4)c2C)nc1C
    -0.8%	21
> CC(C)c1ccc(/C=C(\C#N)c2nc(-c3ccc(O)cc3)cs2)cc1
    -5.4%	-11

The results go on.
| Molecule | ClpP mod | TRPML1 blocker |
| --- | --- | --- |
| CCc1ccc(NC(=O)c2sc3nc(C)c(Cl)c(C)c3c2NC(=O)c2ccccc2)cc1 | -1.4% | 3 |
| Cc1ccc(NC(=O)CSc2nc3c(oc4ccccc43)c(=O)n2Cc2ccco2)cc1 | -5.6% | 4 |
| CCCn1c(CCC(=O)Nc2ccc(OCC)cc2)nc2cccnc21 | -2.8% | 23 |
| CCCN(CCC)C(=O)Cn1c(=O)n(-c2ccc(C)c(C)c2)c(=O)c2c3c(sc21)CCCCC3 | -2.7% | 2 |
| Cc1cc(=O)[nH]c2nnc(SCc3cccc(F)c3)n12 | -9.1% | 4 |
| COCCCNC(=O)CSc1nc(-c2ccc(OC)cc2)[nH]c1-c1ccc(OC)cc1 | u | -4 |
| Cc1ccccc1NC(=O)CCc1c(C)nc2c(c1C)c(=O)n(C)c(=O)n2C | -9.5% | -13 |
| COc1ccc(Cl)cc1NC(=O)CN(C)S(=O)(=O)c1ccc2c(c1)CCCN2C(C)=O | 0.4% | -11 |
| Cc1ccccc1N(C)S(=O)(=O)c1nnc(NC(=O)C(C)C)s1 | -2.3% | -25 |
| CCOc1cc(CNCCSc2nnnn2C)cc(Cl)c1OCc1ccc(Cl)cc1 | -8.6% | 26 |
| COc1ccc(C2=NC(C)(C)N(CC(=O)Nc3ccc(F)c(F)c3)C2=O)cc1 | -8.5% | 6 |
| CCc1ccc(S(=O)(=O)N(C(=O)Oc2ccccc2)c2ccc3oc(C)c(C(=O)OC)c3c2)cc1 | -3.3% | 5 |
| COc1ccc(CCNC(=O)c2cnc3sc(N4CCC(C)CC4)nn3c2=O)cc1OC | -15% | -12 |
| CCc1ccccc1NS(=O)(=O)c1ccc(-c2coc(C)n2)cc1 | -4.3% | -15 |
| CC(C)c1ccc(NC(=O)Cn2cc(S(=O)(=O)Cc3ccccc3Cl)c3ccccc32)cc1 | -9.2% | -6 |
| CC(C)(C)OC(=O)N1CCC(c2c(C(=O)NC3CCN(Cc4ccccc4)CC3)cnn2-c2ccc(F)cc2F)CC1 | 0.9% | -14 |
| Cc1ccc(CNc2ncnc3c2c(-c2ccccc2)cn3-c2ccccc2)cc1 | 28µM* | 59 |
| O=C(CSc1nc(-c2ccc(F)cc2)[nH]c1-c1ccccc1)NCC1CCCO1 (stereo not drawn) | u | -13 |
| COc1ccc(-n2cc(C(=O)OCc3ccc(F)c(F)c3)c3ccccc3c2=O)cc1 | 5.5% | 1 |
| Cc1cc(Nc2ccc(C)c(C)c2)n2cnnc2n1 | 0.3% | -1 |

Reprinted from the part before: 3 compounds; new compounds follow.
| Molecule | ClpP mod | TRPML1 blocker |
| --- | --- | --- |
| O=C(CSc1nc(-c2ccc(F)cc2)[nH]c1-c1ccccc1)NCC1CCCO1 (stereo not drawn) | u | -13 |
| COc1ccc(-n2cc(C(=O)OCc3ccc(F)c(F)c3)c3ccccc3c2=O)cc1 | 5.5% | 1 |
| Cc1cc(Nc2ccc(C)c(C)c2)n2cnnc2n1 | 0.3% | -1 |
| Cc1ccc2c(c1)c(=O)c1ccccc1n2CCCC(=O)Nc1ccc(Cl)cc1C | -28% | 29 |
| O=c1cc(-c2ccccc2)n2c(SCc3ccc([N+](=O)[O-])cc3)nnc2[nH]1 | -1.0% | -5 |
| Cc1ccc(C)c(NC(=O)c2cc(S(=O)(=O)N3CCN(c4cccc(Cl)c4)CC3)ccc2F)c1 | -11% | 4 |
| Cc1ccc(COC(=O)c2[nH]c3c(c2C)C(=O)CC(c2ccc(N(C)C)cc2)C3)cc1 (stereo not drawn) | -2.0% | -14 |
| O=C(CCNS(=O)(=O)c1ccc2c(c1)CCN2C(=O)C1CC1)N1CCN(c2ccccc2F)CC1 | -9.2% | 2 |
| COc1cc(OC)c(NC(=O)Nc2cccc(OCc3cc(=O)n4ccccc4n3)c2)cc1Cl | -7.9% | 26 |
| O=S(=O)(c1ccccc1)c1nc(-c2cccs2)oc1SCc1ccc(F)cc1 | -4.6% | 3 |
| CSc1ncc(C(=O)NCc2ccc(Cl)cc2)c(C(F)(F)F)n1 | -0.3% | 50 |
| CCOC(=O)c1ccc(NC(=O)c2c(NCc3cccc(OC)c3)sc3c2CCC3)cc1 | -11% | 24 |
| Cc1oc(-c2ccccc2F)nc1CS(=O)CC(=O)NC(C)C (stereo not drawn) | -9.3% | -3 |
| Cc1cc(C)c(S(=O)(=O)n2cnc(C)c2)c(C)c1 | 1.7% | -22 |
| Cc1cccc(NC(=O)CS(=O)(=O)c2nc(-c3ccccc3)cn2-c2cccc(Cl)c2)c1C | 2.1% | 18 |
| C=C(C)Cn1c(SCC(=O)c2ccc(OC)cc2)nc2sc3c(c2c1=O)CCCC3 | -1.6% | 63 |
| CCN(CC)c1ccc(NS(=O)(=O)c2ccc3c(c2)CCCN3C(C)=O)c(C)c1 | -1.8% | -12 |
| Cc1c(C(=O)OC2CCCC2)[nH]c2c1C(=O)CC(c1ccc(Cl)cc1)C2 (stereo not drawn) | 0.2% | 16 |
| CCOc1ccc(CNC(=O)CCC(=O)N2CC3CCCN3c3ccccc32)cc1 (stereo not drawn) | -9.5% | 23 |
